Mtb bLac sens – beta-lactam sensitization of Mtb H37Rv, H37Rv; M. tuberculosis H37Rv growth with meropenem, percent inhibition; hits of this screen are not shown here; inhibition, % at 25 µM; actives 0.27% (n = 330,000);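 active = about 74% or more and at least 40 points above the plate without the antibiotic, then above 30% in a dose series; inconclusive = first-round hits that could not be retested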;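 also: growth measured after seven days incubation then overnight dye step; 0% = bacteria only wells and 100% = bacteria with antibiotic; twin plates without the antibiotic show which effects depend on it; some results filed as inactive read as strong as hits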
Mtb H37Rv – M. tuberculosis H37Rv growth inhibitors, H37Rv strain (AID 1626). M. tuberculosis H37Rv growth inhibition; higher % means a stronger effect. actives 0.95% (n = 220,000). inhibition, % at 10 µM; hits with a dose series show IC50 in µM;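 active = confirmed in a dose series; inconclusive = inhibition above 80% but not taken into the dose series; inactive = below 80% or under 30% at every dose of the series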;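 also: bacteria incubated seven days before Alamar blue readout; 0% = bacteria only wells and 100% = bacteria with antibiotic wells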
YopH inh – YopH tyrosine phosphatase inhibitors, primary screen, biochemical, fluorescence Ex485/Em525 | YopH tyrosine phosphatase [Yersinia enterocolitica] | inhibition, %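 (about 10 µM by stock and volumes)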 | actives 0.16% (n = 140,000) | AID 898, 2007;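 active = inhibition of 50% or more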;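 also: controls were vehicle for no effect and minimum signal wells for full effect; inactives centre near -20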
Arbovirus anti – antivirals against arbovirus infection, primary screen, cell-based, full library, 10K replicate subset; inhibition, % at 10 µM; arbovirus infection cell-based antiviral screen; AID 1251, 2008; actives 0.37% (n = 200,000);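 active = inhibition from about 30%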;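 also: bluetongue infection of BSR cells; cell survival read as ATP light after 72 h; 0% = infected wells without compound and 100% = uninfected wells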
RecA intein inh – Mtb RecA intein splicing inhibitors, primary screen, biochemical, fluorescence, HTS. actives 0.75% (n = 290,000). inhibition, %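 (about 9 µM by stock and volumes)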. AID 2221, 2009. cell-free RecA intein splicing. Protein RecA (Mycobacterium tuberculosis (strain ATCC 25618 / H37Rv)), P9WHJ3; in the data active = inhibition above about 30%; inconclusive = no clear call, values can overlap the other calls;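 also: 0% = vehicle wells and 100% = reference inhibitor control wells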
Target sequence (P9WHJ3 whole entry, looked up): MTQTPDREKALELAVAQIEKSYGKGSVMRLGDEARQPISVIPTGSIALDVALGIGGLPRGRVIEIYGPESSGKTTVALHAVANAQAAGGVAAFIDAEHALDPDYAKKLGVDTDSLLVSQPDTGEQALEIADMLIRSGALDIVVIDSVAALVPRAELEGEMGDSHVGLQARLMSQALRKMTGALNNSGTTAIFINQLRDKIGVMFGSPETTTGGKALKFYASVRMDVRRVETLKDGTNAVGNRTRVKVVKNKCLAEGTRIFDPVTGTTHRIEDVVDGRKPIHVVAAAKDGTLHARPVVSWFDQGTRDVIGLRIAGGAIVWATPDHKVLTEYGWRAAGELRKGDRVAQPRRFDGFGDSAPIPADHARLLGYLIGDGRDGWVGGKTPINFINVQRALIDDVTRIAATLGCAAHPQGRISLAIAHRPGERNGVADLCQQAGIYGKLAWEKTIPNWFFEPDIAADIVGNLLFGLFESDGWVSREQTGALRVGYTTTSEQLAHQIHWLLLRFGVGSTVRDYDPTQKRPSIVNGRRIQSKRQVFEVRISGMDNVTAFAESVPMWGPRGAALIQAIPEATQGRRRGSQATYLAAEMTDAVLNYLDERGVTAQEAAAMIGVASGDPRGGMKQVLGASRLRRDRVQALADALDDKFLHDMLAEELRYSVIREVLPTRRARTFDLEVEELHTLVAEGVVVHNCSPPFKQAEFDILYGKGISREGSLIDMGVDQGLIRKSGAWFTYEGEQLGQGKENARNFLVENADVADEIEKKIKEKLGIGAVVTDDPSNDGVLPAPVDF
Arbovirus anti repeat – also measured in Arbovirus anti; calls as there; inhibition, %; measured here: 10K subset replicate screen; many hits read low in the repeat;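 first of two repeat runs on a subset; 0% = infected and 100% = uninfected wells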
* marks the source's active call; other numbers are inactive results; ? = inconclusive; nt = not tested or not shown.

Start of the data: the first five records, to show the layout:
SMILES	Mtb bLac sens	Mtb H37Rv	YopH inh	Arbovirus anti	RecA intein inh	others
Cc1ccc(C(O)(C(=O)NN(C(=O)c2ccccc2)c2ccccc2)c2ccc(C)cc2)cc1	1	6%	-23	-2	-0.4
COc1ccc(-c2ccc(=O)n(CC(=O)NCC3COCCO3)n2)cc1 (stereo unspecified)	-7	nt	nt	nt	-0.9
CCc1ccccc1-n1c(SCC(=O)NC)nnc1-c1ccco1	-2	nt	nt	nt	-2.5
Cn1nnc(NC(=S)NC(=O)c2cccc3ccccc23)n1	11	nt	nt	nt	-0.8
c1ccc2nc3ccccc3nc2c1	2	12%	-18	-3	-0.3

The whole of this part, previewed entries included:
SMILES	Mtb bLac sens	Mtb H37Rv	YopH inh	Arbovirus anti	RecA intein inh	others
Cc1ccc(C(O)(C(=O)NN(C(=O)c2ccccc2)c2ccccc2)c2ccc(C)cc2)cc1	1	6%	-23	-2	-0.4
COc1ccc(-c2ccc(=O)n(CC(=O)NCC3COCCO3)n2)cc1 (stereo unspecified)	-7	nt	nt	nt	-0.9
CCc1ccccc1-n1c(SCC(=O)NC)nnc1-c1ccco1	-2	nt	nt	nt	-2.5
Cn1nnc(NC(=S)NC(=O)c2cccc3ccccc23)n1	11	nt	nt	nt	-0.8
c1ccc2nc3ccccc3nc2c1	2	12%	-18	-3	-0.3
Cc1cc2c(cc1S(=O)(=O)Nc1cccc(F)c1)n(C)c(=O)c(=O)n2C	-3	nt	nt	nt	-1.9
Cc1ccc(O)c(C(CC(=O)NCc2ccco2)c2ccccc2)c1 (stereo unspecified)	-7	0%	nt	1	3.4
CCOC(=O)c1[nH]c(C)c(C(=O)Nc2ccc(Cl)cc2)c1C	?	7%	-28	2	0.8	Arbovirus anti repeat=-9
Cc1cccc(C)c1NC(=O)CN(C)C(=O)c1cc(S(=O)(=O)N2CCOCC2)ccc1N1CCCC1	-7	nt	nt	nt	1.2
O=C(CCCOc1ccc(Cl)cc1Cl)N/N=C/c1ccco1	8	-1%	nt	-17	-5.3
CCN(CC)CCNC(=O)c1ccc(NC(=O)Cc2ccccc2F)cc1	1	-8%	nt	6	nt
CCOC(=O)N1CCC(NC(=O)c2cn(-c3ccc(OC)cc3)c(=O)c3ccccc23)CC1	-5	1%	-6	-4	1.5
Cc1ccc(NS(=O)(=O)c2csc(C(N)=O)c2)cc1C	7	nt	nt	nt	-1.5
CCOC(=O)C1(C)/C(=N/Nc2ccc(Cl)cc2)C(=O)C(=O)N1c1ccccc1 (stereo unspecified)	66	83%	-15	-5	-2.9
COc1ccccc1C1CC(c2cccs2)=Nc2ccccc2S1 (stereo unspecified)	94	60%	6	-4	5.0
COc1ccc2cc(C(=O)Nc3ccccc3)sc(=O)c2c1OC	3	-1%	3	0	-1.8
O=C(NCC1CCCO1)c1csc2c1CCCC2 (stereo unspecified)	-3	13%	-37	-1	3.0
O=C(CCc1nc2ccccc2c(=O)[nH]1)N1CCN(C/C=C/c2ccccc2)CC1	-3	-9%	-17	15	-11
O=C1Cc2cc(S(=O)(=O)Nc3cccc([N+](=O)[O-])c3)cc3c2N1CCC3	-4	nt	nt	nt	5.5
Cc1cc(Br)c(NC(=O)COC(=O)CSc2nnc(-c3ccc(Cl)cc3)o2)c(Br)c1	95	74%	-16	-4	1.2
c1ccc2c(-c3cn4ccccc4n3)c[nH]c2c1	-6	-6%	nt	-5	6.7
CNc1ccc(OC(F)F)cc1C(=O)c1ccccc1	2	5%	-27	7	6.0	Arbovirus anti repeat=2
CC(OC(=O)CSc1ccc([N+](=O)[O-])cc1)C(=O)NCc1ccccc1 (stereo unspecified)	-2	nt	nt	nt	5.6
CC(C)c1ccccc1OCC(=O)Nc1ccccc1C(=O)N1CCOCC1	-1	nt	nt	nt	-1.7
CC(=O)Nc1ccc(NC(=O)/C(=C/c2ccco2)NC(=O)c2ccccc2)cc1	-2	-4%	nt	-2	-0.1
Cc1ccc(NC(=O)c2ccc3ccccc3n2)nc1	-2	3%	-18	9	1.2
COC(=O)c1ccccc1C(=O)N1CCOCCN(C(=O)c2ccccc2C(=O)OC)CCOCC1	-5	0%	-10	12	2.1
COc1ccc([N+](=O)[O-])cc1NC(=O)CCCOc1ccccc1	-6	-14%	-18	2	-2.0
Cn1c(=O)c2c(nc(NCc3ccccc3)n2Cc2ccc(F)cc2)n(C)c1=O	nt	15%	-24	5	nt	Arbovirus anti repeat=1
O=C(CN(CC1CCCO1)C(=O)CNS(=O)(=O)c1ccc(F)cc1)NCc1ccccc1 (stereo unspecified)	1	nt	nt	nt	0.4
COc1ccc(C)cc1NC(=O)CSc1nc(SC)ns1	46	8%	-24	-7	9.3
Cc1ccc(OCC(=O)c2cc(C)n(C3CC3)c2C)c([N+](=O)[O-])n1	8	-4%	-24	-2	-3.3
COc1ccc(CC(=O)c2ccc(OC)c(OC)c2)cc1	-1	-1%	-29	5	-1.5
CCOc1ccccc1NC(=O)c1ccccc1NC(=O)c1ccco1	-1	nt	nt	nt	0.1
Cc1[nH]c(=O)[nH]c(=O)c1S(=O)(=O)Nc1cccc(C(F)(F)F)c1	6	nt	nt	nt	-1.4
Cc1cc(OCC(=O)NCCN2CCOCC2)cc(C)c1Cl	3	nt	nt	nt	0.1
COCc1cc(=O)[nH]c(SCC(=O)Nc2ccccc2)n1	-11	-3%	-31	11	2.3
CCOc1cccc(OCCOc2ccccc2[N+](=O)[O-])c1	2	4%	-19	4	3.7
O=C(c1cc(=O)[nH]c2ccccc12)N1CCN(S(=O)(=O)c2ccc3ccccc3c2)CC1	-7	-4%	-26	6	-5.6
Cn1c(Cc2ccccc2)nnc1SCc1ccc(C(=O)O)cc1	-10	-3%	-16	0	-2.4
Cc1ccc(S(=O)(=O)NCC(=O)N2CCN(S(=O)(=O)c3ccc(Cl)cc3)CC2)cc1C	-2	nt	nt	nt	1.0
COc1ccc(C(C#N)(CCC#N)CCC#N)cc1OC	-7	-6%	-35	2	-1.6	Arbovirus anti repeat=-2
CC(=O)Nc1ccc(NC(=O)[C@@H]2CCCC[C@@H]2C(=O)O)cc1	-13	4%	nt	2	0.6
Cc1ccc(NC(=O)c2cc(NC(=O)C3CC=CCC3C(=O)O)ccc2N2CCOCC2)cc1Cl (stereo unspecified)	5	-7%	-11	11	-0.5
CC(C)c1ccc(NC(=O)CSc2nc3ncccc3[nH]2)cc1	58	nt	nt	nt	4.1
COC(C[C@H]1O[C@H]1C(=O)COCc1ccccc1)OC	nt	-12%	nt	nt	1.7
Cc1cc(C)cc(N=c2c([N+](=O)[O-])nn(-c3ccc4c(c3)OCCO4)n2O)c1	3	-7%	nt	-4	-7.0
COc1ccc(/C=C/C(=O)OCc2cc(=O)n3c(n2)sc2ccccc23)cc1	1	6%	-24	12	-1.9
CC1CCCCN1c1ncnc2ccccc12 (stereo unspecified)	-3	-2%	3	18	0.3
NC(=O)CC(NC(=O)Cc1ccc(Br)cc1)c1ccc(N2CCC(N3CCCC3)CC2)c([N+](=O)[O-])c1 (stereo unspecified)	-15	nt	nt	nt	-0.7
O=C(NCc1nc2ccccc2[nH]1)C1=C[C@@H](C2CCCCC2)C[C@@H](OCCCCO)O1	-1	1%	nt	nt	3.2
COc1ccccc1NC(=O)CCC(=O)N/N=C(/C)c1ccc(C)cc1	5	1%	-5	5	0.3
COc1ccc(C(=O)c2oc3ccccc3c2N)cc1	15	-10%	-37	-1	-12
O=C(Nc1ccc(C(=O)NCCCN2CCCCC2)cc1)C1=CSCCO1	-3	nt	nt	nt	-3.2
Nc1cc(N2CCCCC2)c(Cl)cc1[N+](=O)[O-]	-11	-6%	-34	-7	4.0
COC(=O)N/N=C/c1cc(C)n(-c2ccccc2)c1C	-1	3%	-9	-8	-1.0
Nc1nnc(CCN2C(=O)CSC2=O)s1	0	-6%	-28	4	1.0
S=C1NC2=C(CCCC2=C2SCCCS2)C(c2ccccc2)N1 (stereo unspecified)	3	10%	nt	22	-1.2
N#C/C(=C\c1ccccc1)c1ccccn1	-7	1%	nt	-10	-1.3
Cn1c(=O)c(C(=O)NCc2ccc(F)cc2)c(O)c2ccccc21	1	nt	nt	nt	-1.5

Remaining list, next part.
SMILES	Mtb bLac sens	Mtb H37Rv	YopH inh	Arbovirus anti	RecA intein inh	others
CCCC(c1nnnn1Cc1ccc(OC)cc1)N1CCN(C(=O)c2ccco2)CC1 (stereo unspecified)	0	nt	nt	nt	0.3
N#Cc1c(-c2cccs2)cc(C2CC2)nc1SCC(N)=O	-2	-3%	-3	-7	-0.3
Cc1nc(Nc2ccncc2)c2oc3ccccc3c2n1	26	2%	-11	-4	0.0
COc1ccccc1CCn1cc(C#N)c(=O)[nH]c1=O	-5	1%	nt	nt	-0.5
O=C(c1ccc(S(=O)(=O)N2CCOCC2)cc1)N(c1ccccn1)C1CCCCC1	-3	-9%	nt	nt	-1.2
COc1ccc(/C=N/N2CCN(c3ccncc3S(=O)(=O)N3CCCCC3)CC2)cc1	-10	-11%	-23	-9	0.4
CSc1ccc(C#N)cc1NC(=O)c1ccc(Cl)nc1	1	7%	nt	-4	0.4
CC(C)NCCCOc1ccc(C(C)(C)c2ccccc2)cc1	-1	-13%	1	-1	0.1
COCCn1nnnc1C(c1ccc(C(F)(F)F)cc1)N1CCOCC1 (stereo unspecified)	?	-3%	-22	6	0.6
O=C(O)CCC1(c2ccccc2)NC(=O)NC1=O (stereo unspecified)	8	-13%	nt	nt	1.9
Cc1c(Cl)c([N+](=O)[O-])nn1CCCC(=O)Nc1cc(Oc2ccccc2)cc([N+](=O)[O-])c1	99	6.9µM*	-12	-10	1.9
C#CCOCCOCCOCCNc1nc(N2CCN(C(=O)[C@H](CCC(=O)O)n3cc(C(N)CO)nn3)CC2)nc(N2CCN(C(=O)[C@H](CCC(=O)O)n3cc(C(N)CC(C)C)nn3)CC2)n1 (stereo partly specified)	nt	-15%	nt	nt	-0.7
O=C(O)c1ccc(-n2nncc2-c2ccccc2)cc1	-5	nt	nt	nt	-0.9
CCOc1ccc(Nc2cc(C)c3ccccc3n2)cc1	83	nt	nt	nt	3.5
Cc1ccc2nc(N3CCN(C(=O)c4ccc(F)cc4)CC3)c(C#N)cc2c1	4	nt	nt	nt	-19
CCCCNC(=S)Nc1cc(S(=O)(=O)N2CCCCC2)ccc1C	-6	-12%	nt	nt	-0.8
CC(=O)NC(Cc1cc(C)ccc1C)C(=O)N1CCN(C(=O)c2ccc([N+](=O)[O-])cc2)CC1 (stereo unspecified)	0	nt	nt	nt	0.6
CCOc1cccc2cc(C(N)=O)c(=NCc3ccccc3)oc12	2	12%	6	-3	-5.1
NC(=O)CN1C(=O)C2CCCCN2C(=O)c2ccccc21 (stereo unspecified)	1	-2%	-42	4	-2.1
Clc1cccc(Cl)c1/C=N\Nc1nccs1	86	8%	-26	0	4.3
Cc1ccc(C(=O)NCc2ccc(Cl)cc2)o1	-7	-1%	12	-3	-1.9
CCN(CC)CCCOC(=O)C(OC(C)C)(c1ccccc1)c1ccccc1	-7	1%	-5	3	2.0
Cn1c(/C=C/c2ccc(Br)cc2)nc2ccccc2c1=O	5	nt	nt	nt	-33
O=C(/C=C/c1ccc(Cl)cc1)Nc1nccs1	nt	9%	nt	-7	1.4
C=CCn1c(/N=C/c2ccc(OC)cc2)nc2ccccc21	-6	nt	nt	nt	0.9
Oc1ccccc1C1CCCCC1c1ccccc1 (stereo unspecified)	-1	nt	nt	nt	4.3
CCC(=S)/C=C1\Sc2ccc3ccccc3c2N1CCCS(=O)(=O)O	-1	-7%	8	10	-1.6
O=C(c1ccc(S(=O)(=O)Nc2ccccc2)cc1)N1CCCCCCC1	-20	nt	nt	nt	0.8
O=C(CCNC(=O)Cn1ccc2ccccc2c1=O)NCCN1CCN(c2ccccc2F)CC1	6	-5%	-16	nt	2.0
O=C(Nc1c(C(=O)N2CCOCC2)cnn1-c1ccccc1)c1ccco1	-6	-1%	-50	-3	2.1
COc1ccc(-c2csc(NC(=O)c3ccco3)n2)cc1	81	7%	-18	65*	4.1
COc1ccc(Cl)cc1NC(=O)CN(C)CC(=O)Nc1cc(OC)c(OC)c(OC)c1	3	nt	nt	nt	-1.3
Cc1ccc(S(=O)(=O)NN2C(=O)/C(=C/c3ccccn3)SC2=S)cc1	7	4%	-14	4	-1.8
Cc1c(Nc2cc(N3CCCCCC3)c3nonc3c2[N+](=O)[O-])c(=O)n(-c2ccccc2)n1C	-4	-6%	-31	7	0.2
O=C(COC(=O)c1ccccc1C(=O)c1ccccc1)NCc1ccc(F)cc1	7	-7%	nt	-1	8.2

Screening data as filed in PubChem BioAssay.

The list is partial; rates above refer to the full screens.
